Calb FLC: C. albicans growth inhibition with fluconazole, primary screen, CaCi-2 strain, Alamar Blue fluorescence; AID 1979, 2009; 300,000 compounds, 0.57% hits; C. albicans CaCi-2 (fluconazole-resistant clinical isolate) + fluconazole, 48 h; growth inhibition, % (no concentration beside the values);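 active = most replicates above 75%; inconclusive = exactly half above 75%; inactive = most below 75%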;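 also: all wells also contain fluconazole at 8 µg/ml as a sub-toxic cotreatment; 0% = median of DMSO wells and 100% = median of geldanamycin control wells; wells of about 8 µL received 7.5 nL stock; the first replicate is given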
A1 inh: caspase 3/7 activation in MEF A1-2A-BIM cells, primary screen, A1 inhibitor project, cell-based, luminescence, HTS | Caspase-Glo 3/7 luminescence, 3 h; percent of clofoctol response, vehicle zero | caspase activation, % (concentration not given with the values) | 330,000 compounds, 0.066% hits;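 active = over half of replicate activation scores above 10%, or exactly half above 10 with the replicate mean above 10; inconclusive = replicate mean below 10 yet half the replicates above 10; inactive = over half of replicates below 10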;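 also: wells of about 30 µL received 50 nL stock; many hits fall short of the cut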
Beta cell apopt: inhibitors of cytokine-induced beta cell apoptosis, primary screen, luminescence | INS-1E cytokine-induced death, ATP luminescence, 48 h; percent of positive-control rescue, neutral wells zero | protection from apoptosis, % (test concentration not listed) | 300,000 compounds, 0.8% hits | AID 435005, 2010;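 active = all replicates at 75% or more, or half of them and the mean; inconclusive = half reach 75% but not the mean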;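 also: 0% = cytokine-treated negative control wells and 100% = positive control rescue; higher means more ATP so stronger rescue from cytokine killing; wells of about 40 µL received 100 nL stock; the first replicate is given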
Beta2AR agonist: beta2AR agonists driving receptor internalization, primary screen, cell-based, FAP fluorogen, flow cytometry; Beta-2 adrenergic receptor (Homo sapiens), P07550; Am2.2-beta2AR cells; reference of the scale not given here; response, % (concentration not given with the values); 340,000 compounds, 0.43% hits; AID 504454, 2011;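 active = response above a set limit, near 3 SD of response in nonfluorescent compounds, cut at about 42% in these data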;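 also: stock transfer was 100 nL into about 11 µL; a reference agonist was the positive control; negative values mostly stem from fluorescent compounds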
Target sequence (P07550 whole entry, looked up): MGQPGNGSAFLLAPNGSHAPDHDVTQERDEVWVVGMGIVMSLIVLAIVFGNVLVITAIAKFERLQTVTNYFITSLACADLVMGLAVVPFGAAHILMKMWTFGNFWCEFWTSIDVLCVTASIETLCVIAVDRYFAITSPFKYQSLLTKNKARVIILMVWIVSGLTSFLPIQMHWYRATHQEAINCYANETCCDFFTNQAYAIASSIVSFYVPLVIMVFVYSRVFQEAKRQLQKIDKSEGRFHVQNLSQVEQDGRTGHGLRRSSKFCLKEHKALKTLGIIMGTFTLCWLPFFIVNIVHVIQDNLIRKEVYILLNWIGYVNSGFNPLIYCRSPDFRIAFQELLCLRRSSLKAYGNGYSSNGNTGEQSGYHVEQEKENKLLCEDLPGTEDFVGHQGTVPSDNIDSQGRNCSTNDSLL
UCH37 inh: inhibitors of human UCH37 deubiquitinase, primary screen, biochemical, Ub-AMC cleavage, fluorescence | purified proteasome/UCH37 | AID 588478, 2011 | Ubiquitin carboxyl-terminal hydrolase isozyme L5 (Homo sapiens), Q9Y5K5 | 330,000 compounds, 0.33% hits | inhibition, % (no concentration beside the values);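 active = mean of two replicates above 20%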;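 also: 0% = compound-free wells with enzyme and 100% = wells lacking proteasome; stock transfer was 100 nL into about 20 µL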
Target sequence (Q9Y5K5 whole entry, looked up): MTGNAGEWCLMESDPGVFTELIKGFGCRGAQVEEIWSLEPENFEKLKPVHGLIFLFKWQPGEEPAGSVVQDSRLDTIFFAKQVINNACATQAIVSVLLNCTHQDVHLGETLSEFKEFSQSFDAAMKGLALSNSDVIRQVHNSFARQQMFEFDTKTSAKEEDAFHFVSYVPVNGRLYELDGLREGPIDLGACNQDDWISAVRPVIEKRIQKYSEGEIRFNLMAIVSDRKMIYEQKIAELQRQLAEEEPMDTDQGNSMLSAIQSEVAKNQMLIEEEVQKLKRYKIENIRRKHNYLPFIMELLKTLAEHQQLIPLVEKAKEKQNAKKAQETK
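Assay system: Proteasome-bound UCH37. Buffer or medium: pH 7.4 Tris-HCl (50 mM) with ovalbumin, ATP-MgCl2, DTT. Incubation: 30 min preincubation with enzyme, 25 min cleavage at room temperature. Measured by: fluorescence, ex 355 nm, em 460 nm. Read-out basis: percent inhibition. Control set: wells without proteasome as full block, compound-free enzyme plus substrate as uninhibited.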
LANA-H2A inh: blockers of LANA interaction with H2A/H2B – biochemical, FP readout, HTS, primary screen; cell-free LANA-H2A/H2B peptide, fluorescence polarization; inhibition, % (no concentration beside the values); 320,000 compounds, 0.6% hits; AID 2629, 2010; in the data active = inhibition mostly above about 10%, no sharp cut-off; inactive = mostly below about 6.7%;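 also: stock transfer was 7.5 nL into about 10 µL; 0% = median of vehicle wells and 100% = median of positive control wells; one replicate is shown; the record names a cut of 25% in any replicate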
T cruzi inh: inhibitors of intracellular T. cruzi growth, primary screen, luminescence, NIH3T3 host cells; T. cruzi beta-gal in NIH3T3, 90 h; inhibition, % (test concentration not listed); 300,000 compounds, 1.4% hits; AID 1885, 2009;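 active = mean inhibition across valid replicates above about 55%, limit read from the data; inconclusive = mean below that limit but half or more replicates reach it; inactive = mean below it, under half of replicates reach it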;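 also: signal also drops with host cell toxicity which is not excluded here; 0% = plate median of DMSO wells and 100% = zero luminescence signal; higher percent means less beta-gal luminescence so fewer parasites; stock transfer was 50 nL into about 50 µL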
RanGTP-Impb inh: inhibitors of RanGTP-importin-beta interaction, primary screen, biochemical, FRET, CFP-Ran, YFP-importin-beta, homogeneous; Ran GTPase (GTP-bound) - importin-beta complex; cell-free CFP-Ran/YFP-importin-beta FRET ratio; inhibition, % (no concentration beside the values); 300,000 compounds, 1.1% hits; AID 2216, 2009;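 active = most replicates above 15%; inconclusive = exactly half above 15%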;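 also: 0% = DMSO wells and 100% = Ran loaded with GDP instead of GTP; wells of about 40 µL received 100 nL stock; the first replicate is given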
* = called active by the depositor.

Screening c1ccc(-c2nnc(CSc3nc4ccccc4[nH]3)o2)cc1 returned Calb FLC -12.4, A1 inh -1.3, Beta2AR agonist -11.6, UCH37 inh 5.7, LANA-H2A inh -0.4, T cruzi inh -0.7 and RanGTP-Impb inh 3.6.
CC(=O)c1cccc(S(=O)(=O)N2CCC(c3nc4ccccc4[nH]3)CC2)c1 was read as Calb FLC -11.0, A1 inh -0.4, Beta cell apopt 7.0, Beta2AR agonist 20.9, UCH37 inh 2.9, LANA-H2A inh 4.0, T cruzi inh 13.0 and RanGTP-Impb inh -1.1.
Screening O=C(Nc1cccc(F)c1)c1ccc2c(c1)OCO2 returned Calb FLC -6.0, A1 inh -10.0, Beta cell apopt 1.2, Beta2AR agonist -7.8, UCH37 inh 0.9, LANA-H2A inh 8.3, T cruzi inh -0.9 and RanGTP-Impb inh 2.8.
Cc1ccc(NC(=O)c2oc3ccc(S(=O)(=O)N4CCOCC4)cc3c2C)c(C)c1 was read as Calb FLC 0.5, A1 inh -0.7, Beta cell apopt 3.6, Beta2AR agonist 11.2, UCH37 inh -26.5, LANA-H2A inh -3.4, T cruzi inh 8.5 and RanGTP-Impb inh 3.7.
`CCC(=O)N1c2ccc(S(=O)(=O)NCCc3ccccc3)cc2CC1C` (configuration not stated) gave Calb FLC -22.9, A1 inh -0.5, Beta cell apopt 1.7, Beta2AR agonist -4.4, UCH37 inh 2.6, LANA-H2A inh -0.7, T cruzi inh 3.2 and RanGTP-Impb inh -0.1.
COc1ccccc1CNc1nc2nc(C)cc(=O)n2[nH]1 was read as Calb FLC -18.9, A1 inh -0.5, Beta cell apopt -1.2, Beta2AR agonist 0.0, UCH37 inh 5.3, LANA-H2A inh 1.6, T cruzi inh -3.9 and RanGTP-Impb inh 5.3.
For Cc1ccc(NC(=O)Nc2ccccc2C(=O)NCc2ccccc2)cc1 the results were Calb FLC -6.0, A1 inh -1.0, Beta cell apopt -0.1, Beta2AR agonist -10.9, UCH37 inh 2.7, LANA-H2A inh 1.6, T cruzi inh 1.5 and RanGTP-Impb inh -0.6.
`CC1=C(C(=O)Nc2ccccc2)C(c2ccc(C)o2)n2ncnc2N1` (configuration not stated) gave Calb FLC -12.4, A1 inh -0.6, Beta cell apopt -1.6, Beta2AR agonist 4.3, UCH37 inh -3.9, LANA-H2A inh -2.8, T cruzi inh -9.5 and RanGTP-Impb inh 1.4.
For COc1ccc(N(C)S(=O)(=O)c2ccc3c(c2)CCC(=O)N3)cc1 the results were Calb FLC -8.9, A1 inh 0.3, Beta cell apopt -0.6, Beta2AR agonist -5.0, UCH37 inh 2.8, LANA-H2A inh 3.6, T cruzi inh -9.8 and RanGTP-Impb inh -2.5.
`O=C(CSC1=NS(=O)(=O)c2cc(Cl)ccc2N1)Nc1cccc(F)c1` gave Calb FLC 7.1, A1 inh -0.6, Beta cell apopt -4.9, Beta2AR agonist -7.0, UCH37 inh 0.0, LANA-H2A inh -0.7, T cruzi inh 1.6 and RanGTP-Impb inh 0.1.

Overlap with the part before: 2 compounds, then new ones.
For COc1ccc(N(C)S(=O)(=O)c2ccc3c(c2)CCC(=O)N3)cc1 the results were Calb FLC -8.9, A1 inh 0.3, Beta cell apopt -0.6, Beta2AR agonist -5.0, UCH37 inh 2.8, LANA-H2A inh 3.6, T cruzi inh -9.8 and RanGTP-Impb inh -2.5.
`O=C(CSC1=NS(=O)(=O)c2cc(Cl)ccc2N1)Nc1cccc(F)c1` gave Calb FLC 7.1, A1 inh -0.6, Beta cell apopt -4.9, Beta2AR agonist -7.0, UCH37 inh 0.0, LANA-H2A inh -0.7, T cruzi inh 1.6 and RanGTP-Impb inh 0.1.
`CSCCC(NC(=O)CCC(=O)OCC(=O)[C@@]1(O)CCC2[C@@H]3CCC4=CC(=O)C=C[C@]4(C)C3[C@@H](O)C[C@@]21C)C(=O)O` (some centres not stated) gave Calb FLC -3.2, A1 inh 0.7, Beta cell apopt 2.5, Beta2AR agonist -3.9, UCH37 inh 2.3, LANA-H2A inh -2.8, T cruzi inh -0.1 and RanGTP-Impb inh -1.1.
For CN1CCN(C(=O)C23CC4CC(C2)CC(c2ccccc2)(C4)C3)CC1 the results were Calb FLC -1.9, A1 inh 2.5, Beta2AR agonist 13.1, UCH37 inh 2.7, LANA-H2A inh 8.0, T cruzi inh 41.5 and RanGTP-Impb inh -3.6.
Screening CC(=O)Nc1ccc(S(=O)(=O)N(Cc2cc3ccc(C)cc3[nH]c2=O)CC2CCCO2)cc1 (configuration not stated) returned Calb FLC 0.5, A1 inh 0.8, Beta2AR agonist -1.8, UCH37 inh -10.3, LANA-H2A inh 0.2, T cruzi inh -3.3 and RanGTP-Impb inh -0.4.
For CCCC(NC(=O)c1ccc(Br)o1)c1nc2ccccc2[nH]1 (configuration not stated) the results were A1 inh 1.7, Beta cell apopt -4.2, Beta2AR agonist -1.2, UCH37 inh 2.9 and LANA-H2A inh -5.0.
For O=C(CSc1nc(-c2ccc(F)cc2)cc(C(F)(F)F)n1)NCc1ccco1 the results were Calb FLC 2.7, A1 inh 0.0, Beta cell apopt 3.9, Beta2AR agonist 1.1, UCH37 inh 1.5, LANA-H2A inh -3.4, T cruzi inh -2.1 and RanGTP-Impb inh 7.3.
`CCN(c1ccccc1)S(=O)(=O)c1ccc(Oc2ccc(-n3ccnc3)cc2)nc1` gave Calb FLC 0.6, A1 inh 0.6, Beta cell apopt 13.2, Beta2AR agonist 8.4, UCH37 inh -3.0, LANA-H2A inh -3.3, T cruzi inh 45.0 and RanGTP-Impb inh -0.1.
CCOC(=O)c1c(NC(=O)c2ccco2)sc2c1CCCC2 was read as Calb FLC 5.0, A1 inh 1.2, Beta cell apopt 1.4, Beta2AR agonist 1.7, UCH37 inh -335.1, LANA-H2A inh 1.7, T cruzi inh -0.7 and RanGTP-Impb inh 0.4.
COc1ccc(NC(=O)CN2CCC(C(N)=O)CC2)cc1 was read as Calb FLC 0.9, A1 inh 0.2, Beta cell apopt -4.0, Beta2AR agonist -1.3, UCH37 inh 2.0, LANA-H2A inh -1.2, T cruzi inh -0.4 and RanGTP-Impb inh 0.2.
CC(=O)c1ccc(NC(=O)CCc2nc3sc4c(c3c(=O)[nH]2)CCCC4)cc1 was read as Calb FLC -3.4, A1 inh -0.9, Beta cell apopt 0.5, Beta2AR agonist 5.0, UCH37 inh 2.2, LANA-H2A inh -1.1, T cruzi inh 13.4 and RanGTP-Impb inh inconclusive.
For CN(C)S(=O)(=O)c1cccc(NC(=O)c2ccc(S(=O)(=O)N3CCCC3)cc2)c1 the results were Calb FLC -2.9, A1 inh 1.0, Beta cell apopt -2.1, Beta2AR agonist -1.8, UCH37 inh 0.5, LANA-H2A inh -1.7 and T cruzi inh -6.2.
Screening C=CCC1CCCCC12NC(=O)N(c1ccccc1)N2 (configuration not stated) returned Calb FLC -3.7, A1 inh 0.7, Beta cell apopt -2.2, Beta2AR agonist -1.0, UCH37 inh 9.7, LANA-H2A inh -3.3, T cruzi inh 8.4 and RanGTP-Impb inh 1.0.
O=C(COC(=O)c1cccnc1)c1ccc(Cl)c(Cl)c1 was read as Calb FLC -7.4, A1 inh 0.8, Beta cell apopt 1.5, Beta2AR agonist 14.7, UCH37 inh 0.1, LANA-H2A inh 14.7, T cruzi inh 3.8 and RanGTP-Impb inh 5.6.
`c1ccc(-n2nnnc2NC2CCCCC2)cc1` gave Calb FLC -25.0, A1 inh -0.2, Beta cell apopt 9.3, Beta2AR agonist 10.4, UCH37 inh -0.5, LANA-H2A inh 2.2, T cruzi inh -9.1 and RanGTP-Impb inh 2.0.
For Cc1ccc(-c2nn(-c3ccccn3)c(=O)c3ccccc23)cc1C the results were Calb FLC -11.4, A1 inh 1.0, Beta cell apopt -1.0, Beta2AR agonist -4.5, UCH37 inh 0.3, LANA-H2A inh -0.9, T cruzi inh 10.7 and RanGTP-Impb inh 5.5.
For COc1ccc(OC)c(NC(=O)CSc2nc3ccccc3c(=O)n2CCNC(C)=O)c1 the results were Calb FLC inconclusive, A1 inh -0.6, Beta cell apopt 9.7, Beta2AR agonist -7.0, UCH37 inh -1.2, LANA-H2A inh -5.3, T cruzi inh -6.8 and RanGTP-Impb inh 8.6.
Screening O=C(Nc1cccc2ccccc12)/C(=C/c1cccc([N+](=O)[O-])c1)NC(=O)c1cccs1 returned Calb FLC 6.6, A1 inh 0.4, Beta cell apopt 4.1, Beta2AR agonist 4.5, UCH37 inh 6.2, LANA-H2A inh -1.4, T cruzi inh 36.6 and RanGTP-Impb inh inconclusive.
Screening COc1ccc2c([N+](=O)[O-])c(N3CCCC3)[nH]c2c1 returned Calb FLC -8.0, A1 inh 0.3, Beta cell apopt -17.0, Beta2AR agonist 1.5, UCH37 inh 3.7, LANA-H2A inh 2.3, T cruzi inh -17.6 and RanGTP-Impb inh -0.1.
`O=C(Cc1cn2ccsc2n1)Nc1cccc2cnccc12` gave Calb FLC -3.2, A1 inh 3.6, Beta cell apopt -0.5, Beta2AR agonist -6.5, UCH37 inh -1.0, LANA-H2A inh 2.4, T cruzi inh -14.0 and RanGTP-Impb inh -3.0.
CC(=O)c1cccc(S(=O)(=O)N2CCN(c3ccccc3F)CC2)c1 was read as Calb FLC -2.4, A1 inh -0.2, Beta cell apopt 6.5, Beta2AR agonist -5.6, UCH37 inh 3.0, LANA-H2A inh 0.1, T cruzi inh 9.8 and RanGTP-Impb inh 6.6.
For CC1(C2CC2)NC(=O)N(CC(=O)Nc2ccccc2-c2ccccc2)C1=O (configuration not stated) the results were Calb FLC -2.1, A1 inh -0.2, Beta cell apopt -2.6, Beta2AR agonist 1.4, UCH37 inh -4.5, LANA-H2A inh 1.8, T cruzi inh -6.4 and RanGTP-Impb inh -2.1.
`CCOC(=O)c1cnc2ccc(OCC)cc2c1N1CCN(c2ccccc2OC)CC1` gave Calb FLC 14.3, A1 inh 0.3, Beta cell apopt 31.4, Beta2AR agonist 11.2, UCH37 inh 1.8, LANA-H2A inh -0.2, T cruzi inh 57.0* and RanGTP-Impb inh 4.2.
`CCCc1c(C)c(C#N)c2nc3ccccc3n2c1NCCCN1CCOCC1` gave Calb FLC 50.2, A1 inh 0.2, Beta cell apopt 3.1, Beta2AR agonist -0.7, UCH37 inh -24.4, LANA-H2A inh -7.8, T cruzi inh 19.6 and RanGTP-Impb inh 9.2.
Screening CC(C)c1ccc(C(=O)NCCCNC(=O)c2cnccn2)cc1 returned Calb FLC -3.6, A1 inh -0.2, Beta cell apopt -7.6, Beta2AR agonist -0.3, LANA-H2A inh 2.3, T cruzi inh 13.6 and RanGTP-Impb inh inconclusive.
Cc1ccc(OCC(=O)NNC(=O)C2CCC2)cc1C was read as A1 inh 0.1, Beta cell apopt 3.2, Beta2AR agonist -0.1, UCH37 inh 5.0 and LANA-H2A inh -8.7.

Screening results as filed in PubChem BioAssay.
